Source: PubChem BioAssay
A1 inh – inhibitors of A1; MEF A1-2A-BIM cells, caspase-Glo luminescence, 3 h; percent of clofoctol signal, DMSO as zero; caspase activation, % (no concentration beside the values); actives 0.51% (n = 21,000);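 active = most replicate scores above 10, or exactly half above 10 with mean activity above 10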;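 note: effector caspase 3 and 7 activity cleaving a DEVD luciferin substrate; 50 nL library stock added to about 30 µL; numbers are from one replicate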
BJeLR viability – compounds reducing viability of BJeLR cells; BJeLR fibroblasts viability, CellTiterGlo ATP luminescence, 48 h; HRASV12, hTERT and SV40 LT/ST transformed; viability loss activity score, % (test concentration not listed); actives 0.64% (n = 30,000); AID 2275; in the data active = viability loss activity score above about 50%; about a fifth of its hits are not listed in these tables;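 note: higher score means fewer live cells and less ATP luminescence; stock transfer was 50 or 100 nL into about 30 µL; 0% = vehicle wells and 100% = a reference killing control; one replicate is shown; the record names a cut of 85%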
An asterisk follows results filed as active; . = not tested or not shown. Only part of the results is shown (hit frequency here may not be typical).

Values in the order: A1 inh, BJeLR viability
> C[C@H](CO)N1C[C@H](C)[C@H](CN(C)S(=O)(=O)c2ccc(Cl)cc2)Oc2c(NC(=O)C3CCOCC3)cccc2C1=O
 : ., -0.2
> COc1c2c(cc3oc(CO[C@@H]4O[C@H](CO)[C@@H](O)[C@H](O)[C@H]4O)cc(=O)c13)OC(C(C)(C)O)C2 (stereo partly drawn)
 : 0.5, -9.9
> C[C@@H]1CN([C@H](C)CO)C(=O)c2cc(NS(C)(=O)=O)ccc2O[C@@H]1CN(C)Cc1ccc(C(=O)Nc2ccccc2N)cc1
 : ., 4.9
> CCn1c(C(=O)N2CCCC(C(=O)O)C2)cc2sccc21 (stereo not drawn)
 : 0.5, 0.7
> C[C@@H]1CN([C@@H](C)CO)C(=O)c2cc(NC(=O)Nc3ccc(F)cc3)ccc2O[C@H]1CN(C)Cc1ccc(C(=O)O)cc1
 : -0.3, 1.0
> CC(C)N1CN=C(Nc2nc3ccccc3o2)NC1
 : -0.7, 0.3
> Cc1c(C(=O)NCCc2ccc(Cl)cc2)oc2ccc(S(=O)(=O)N3CCC(C)CC3)cc12
 : ., 8.3
> CN(C)CCNC(=O)c1ccccn1
 : -0.2, -2.0
> O=C(Nc1ccccc1)OCc1ccc(-c2cc(C(F)(F)F)cc(C(F)(F)F)c2)o1
 : -0.2, 1.5
> CC1=C(Cc2cc3ccc(=O)oc3cc2O)CC(C)(C)CC1
 : ., 5.0
> C[C@H](CO)N1C[C@H](C)[C@H](CN(C)Cc2ccc(Cl)c(Cl)c2)Oc2ccc(NC(=O)C3CCCCC3)cc2C1=O
 : -0.1, -6.8
> C[C@@H]1CN([C@H](C)CO)C(=O)c2cccc(NC(=O)Nc3ccc4c(c3)OCO4)c2O[C@H]1CN(C)Cc1ccc(Cl)c(Cl)c1
 : ., -0.5
> Cc1cccc(NC(=O)Nc2nnc(N3CCCCC3C)s2)c1C (stereo not drawn)
 : -0.1, 1.8
> C[C@H]1CN([C@@H](C)CO)C(=O)c2cc(NC(=O)Cn3cnnn3)ccc2O[C@H]1CN(C)C(=O)Nc1ccc(F)cc1
 : -0.2, 2.9
> C[C@H](CO)N1C[C@H](C)[C@H](CN(C)Cc2ccncc2)Oc2ccc(NC(=O)CCCCCC(=O)Nc3ccccc3N)cc2C1=O
 : ., -1.8
> Cc1noc(C)c1NC(=O)Nc1cccc2c1O[C@@H](CN(C)Cc1ccc3c(c1)OCO3)[C@@H](C)CN([C@@H](C)CO)C2=O
 : ., 4.2
> C[C@@H]1CN([C@@H](C)CO)C(=O)c2cc(NC(=O)c3ccncc3)ccc2O[C@@H]1CN(C)S(=O)(=O)c1ccc(Cl)cc1
 : -0.6, -1.1
> C[C@@H]1CN([C@@H](C)CO)C(=O)c2cc(NC(=O)Nc3ccc4c(c3)OCO4)ccc2O[C@@H]1CN(C)S(=O)(=O)c1cccs1
 : 0.1, -5.2
> N#CC(C(=O)c1cccc(C(F)(F)F)c1)=C1SCCCCS1
 : 0.2, -8.6
> C[C@@H]1CN([C@H](C)CO)C(=O)c2cccc(NC(=O)Nc3cccc4ccccc34)c2O[C@@H]1CN(C)Cc1ccc(C(F)(F)F)cc1
 : ., -5.5
> O=C(O)c1ccc2c(c1)OCO2
 : 0.3, 5.0
> O=c1[nH]c2ccccc2c(=O)n1CCSc1ccccc1
 : -1.8, -3.0
> COc1ccc(S(=O)(=O)Nc2ccc3c(c2)C(=O)N([C@H](C)CO)C[C@H](C)[C@H](CN(C)CC2CCCCC2)O3)cc1
 : -0.5, -5.7
> O=c1c(C=Nc2ccccc2)c(O)c2c(n1-c1ccccc1)CCCC2
 : ., -9.0
> O=C(CC1(O)C(=O)Nc2ccccc21)CC1(O)C(=O)Nc2ccccc21 (stereo not drawn)
 : 0.2, -2.1
> O=S(=O)(c1ccsc1)c1ccsc1
 : 0.1, -3.2
> CCC(Sc1nnc2c3ccccc3n(CC)c2n1)C(=O)NC(C)c1ccccc1 (stereo not drawn)
 : ., -1.3
> C[C@@H]1CN([C@H](C)CO)C(=O)c2cc(NC(=O)Cc3cn(C)c4ccccc34)ccc2O[C@@H]1CN(C)S(=O)(=O)c1cccs1
 : 0.0, -5.0
> O=c1oc(-c2cccnc2)nc2sc3c(c12)CCCCC3
 : -3.0, 5.6
> C[C@H]1CN([C@@H](C)CO)C(=O)c2cc(NC(=O)c3ccncc3)ccc2O[C@@H]1CN(C)S(=O)(=O)c1ccc(F)cc1
 : 1.0, -5.9
> CCc1nnc(SCC(=O)N(CC)c2ccccc2)c2cc3occc3n12
 : 0.0, -0.3
> C[C@@H]1CN([C@@H](C)CO)C(=O)c2cccc(NS(=O)(=O)c3cccs3)c2O[C@H]1CN(C)S(=O)(=O)c1ccc(F)cc1
 : ., 3.4
> COc1ccc(CC(=O)N2CCc3ccccc3C2)cc1
 : ., -1.9
> COc1ccccc1NC(=S)NC(c1ccccc1)c1ccccc1
 : 1.1, 4.7
> CN1c2ccccc2-c2nc3ccccc3n2C1c1ccccc1 (stereo not drawn)
 : 0.7, 0.5
> COc1ccc(CN(C)C[C@@H]2Oc3ccc(NC(=O)NC4CCCCC4)cc3C(=O)N([C@H](C)CO)C[C@H]2C)cc1
 : 0.4, 2.3
> COc1cccc(NC(=O)c2cnccc2C(F)(F)F)c1
 : -0.2, 0.6
> Cc1ccc(S(=O)(=O)N(C)C[C@H]2Oc3c(NC(=O)Nc4ccc5c(c4)OCO5)cccc3C(=O)N([C@H](C)CO)C[C@@H]2C)cc1
 : ., -7.1
> Cc1cc(NC(=O)c2ccc(COc3ccc(Cl)c(C)c3)o2)no1
 : ., 2.6
> CC1(C)CC(N(Cc2cccs2)C(=O)c2ccco2)CCO1 (stereo not drawn)
 : 0.4, 2.0
> C[C@H]1CN([C@@H](C)CO)C(=O)c2cccc(NC(=O)C3CCOCC3)c2O[C@@H]1CN(C)C(=O)Nc1cccc2ccccc12
 : ., -4.0
> COc1ccc(S(=O)(=O)N(C)C[C@H]2Oc3ccc(NC(=O)NC(C)C)cc3C(=O)N([C@@H](C)CO)C[C@H]2C)cc1
 : -1.0, 7.7
> C=CCNC(=O)c1ccc2c(c1)C1C3CCC(C3)C1C(c1ccccc1)N2 (stereo not drawn)
 : 0.3, 1.8
> COc1cc(N=CC2=C(O)c3ccccc3C2=O)cc(OC)c1
 : -3.2, 2.7
> COC(=O)[C@@H]1OC(=O)C2OC23[C@@]1(C)CCC1[C@]2(C)C(C[C@@H](O)[C@]13C)C(C)(C)[C@H](OC(C)=O)C[C@@H]2OC(C)=O (stereo partly drawn)
 : -0.8, -7.3
> COc1ccc(S(=O)(=O)Nc2ccc3c(c2)C(=O)N([C@H](C)CO)C[C@H](C)[C@H](CN(C)Cc2ccc(Cl)c(Cl)c2)O3)cc1
 : 0.1, 1.4
> Cc1cccc(Nc2nc3ccccc3nc2-n2nc(C)cc2C)c1
 : ., -4.1
> C[C@@H]1CN([C@H](C)CO)C(=O)c2cc(NC(=O)C3CCCCC3)ccc2O[C@@H]1CN(C)S(=O)(=O)c1ccc(F)cc1
 : 0.2, -6.9
> CSc1nnc(C(C)(C)C)c(=O)n1/N=C/c1c(O)ccc2ccccc12
 : -0.2, -9.8
> COc1ccccc1C(=O)N/C(=C\c1ccccc1)C(=O)O
 : 1.5, 2.0
> O=C(Nc1ccc(Cl)c(Cl)c1)N1CCC(O)CC1
 : ., -3.4
> CC(C)NC(=O)N(C)C[C@@H]1Oc2ccc(NC(=O)Nc3ccccc3)cc2C(=O)N([C@@H](C)CO)C[C@H]1C
 : 0.4, 3.5
> CCN(CC)CCN1C(=O)c2ccccc2NC1c1ccc(Br)cc1 (stereo not drawn)
 : ., -1.8
> Cc1ccc(CNC(=O)CC(C)C)cc1
 : -0.2, -4.9
> C[C@H]1CN([C@@H](C)CO)C(=O)c2cccc(NC(=O)Nc3ccc(C(F)(F)F)cc3)c2O[C@@H]1CN(C)C(=O)Nc1ccc2c(c1)OCO2
 : ., 4.2
> FC(F)(F)Oc1ccccc1-c1nnc(-c2ccccc2Cl)o1
 : -0.6, -1.8
> CC(C)(C)OC(=O)N1CCC(CNS(=O)(=O)c2ccc3c(c2)OCCO3)CC1
 : ., 1.1
> Cc1ccc(S(=O)(=O)N(C)C[C@H]2Oc3c(NS(=O)(=O)c4ccccc4)cccc3C(=O)N([C@H](C)CO)C[C@H]2C)cc1
 : ., 9.7
> O=S(=O)(NCCO)c1cccc2cccnc12
 : 0.6, -11.8
> C[C@@H]1CN([C@@H](C)CO)C(=O)c2cc(NC(=O)Cc3cn(C)c4ccccc34)ccc2O[C@@H]1CN(C)C(=O)Nc1ccccc1
 : -0.7, -3.2

Compound profiles, as listed above.
C=CCNC(=O)c1ccc2c(c1)C1C3CCC(C3)C1C(c1ccccc1)N2 (stereo not drawn) is entered as A1 inh: 0.3; BJeLR viability: 1.8
COc1cc(N=CC2=C(O)c3ccccc3C2=O)cc(OC)c1 is entered as A1 inh: -3.2; BJeLR viability: 2.7

4 compounds from above, arranged by SMILES length, smallest number first:
Values in the order: A1 inh, BJeLR viability
> COc1ccccc1C(=O)N/C(=C\c1ccccc1)C(=O)O
 : 1.5, 2.0
> CSc1nnc(C(C)(C)C)c(=O)n1/N=C/c1c(O)ccc2ccccc12
 : -0.2, -9.8
> COc1ccc(S(=O)(=O)N(C)C[C@H]2Oc3ccc(NC(=O)NC(C)C)cc3C(=O)N([C@@H](C)CO)C[C@H]2C)cc1
 : -1.0, 7.7
> COc1ccc(S(=O)(=O)Nc2ccc3c(c2)C(=O)N([C@H](C)CO)C[C@H](C)[C@H](CN(C)Cc2ccc(Cl)c(Cl)c2)O3)cc1
 : 0.1, 1.4

Additional compounds:
Values in the order: A1 inh, BJeLR viability
> Clc1cccc(Cl)c1CN(Cc1ccccc1)c1ncnc2nc[nH]c12
 : 1.9, 0.2
> CCCCc1nc2sc3c(Cl)ncnc3c2c2c1COC(C)(C)C2
 : 1.5, -0.2
> Clc1ccc2ncnc(NCc3ccc4c(c3)OCO4)c2c1
 : -1.6, 3.8
> CNC[C@H]1Oc2c(NC(=O)Nc3ccccc3)cccc2C(=O)N([C@H](C)CO)C[C@H]1C
 : ., 1.0
> Cc1ccc(NC(=S)NCCN(C2CCCCC2)C2CCCC2)cc1
 : 0.1, 9.1
> C[C@@H]1CN([C@H](C)CO)C(=O)c2cccc(NC(=O)C3CCOCC3)c2O[C@@H]1CN(C)S(=O)(=O)c1cccs1
 : ., -3.5
> CC(=O)n1cc(-c2ccncc2)c2ccccc21
 : ., -0.9
> CCn1cc(C(=O)NC2CCCC(C)C2C)c2cc(OC)c(OC)cc2c1=O (stereo not drawn)
 : ., 2.1
> Cc1sc(NC(=O)c2ccco2)c(C(c2cccnc2)N2CCCC2)c1C (stereo not drawn)
 : -1.8, 3.6
> O=C(NCc1ccco1)c1cc(F)cc2c1OCOC2
 : -0.3, -2.4
> Oc1c(Cl)cc(Cl)cc1C=Nc1ccc2n[nH]nc2c1
 : ., 0.7
> COc1c(-c2coc3cc4c(cc3c2=O)CC(O)C(C)(C)O4)ccc2c1C=CC(C)(C)O2 (stereo not drawn)
 : -0.6, 14.7
> C[C@H](CO)N1C[C@H](C)[C@@H](CN(C)C(=O)Nc2ccc3c(c2)OCO3)Oc2ccc(NC(=O)C3CCCCC3)cc2C1=O
 : 0.2, -7.0
> NC(=O)CCNCc1ccccc1
 : 0.0, 2.9
> Cc1noc(C)c1NC(=O)Nc1cccc2c1O[C@H](CN(C)S(=O)(=O)c1cccs1)[C@H](C)CN([C@@H](C)CO)C2=O
 : ., 0.8
> C[C@@H]1CN([C@@H](C)CO)C(=O)c2cccc(NC(=O)c3nc4ccccc4s3)c2O[C@@H]1CN(C)C(=O)NC1CCCCC1
 : ., -7.7
> Cc1cc(C(=O)Nc2cccc3c2O[C@@H](CN(C)C(=O)Nc2ccc(C(F)(F)F)cc2)[C@@H](C)CN([C@@H](C)CO)C3=O)n(C)n1
 : ., 3.8
> COc1ccccc1NC(=O)N1C(C(=O)NCc2ccc(F)cc2)CSC1c1ccccc1C (stereo not drawn)
 : 0.8, 3.5
> C=CCn1c(SCc2nnc(SCC(=O)c3ccc(Cl)cc3)o2)nnc1-c1ccccc1
 : 0.9, -5.8
> CC1CCCC(C)N1C(=S)NCCCN1CCOCC1 (stereo not drawn)
 : 0.7, -4.6

Continued:
Molecule,A1 inh,BJeLR viability
O=C1CC(c2ccc(Cl)cc2)n2ncnc2N1 (stereo not drawn),-0.1,-6.6
O=C(COC(=O)c1cc2ccccc2cc1O)c1ccc(OCc2ccccc2)cc1,0.2,-1.4
Cc1ccc(NC(=O)CC2Oc3ccccc3NC2=O)cc1 (stereo not drawn),0.8,-2.0
C[C@H](CO)N1C[C@H](C)[C@@H](CN(C)Cc2ccncc2)Oc2c(NC(=O)Nc3ccc(F)cc3)cccc2C1=O,.,3.0
CN(CCc1ccccn1)C(=O)c1cccnc1Oc1ccc(Cl)cc1,0.3,-0.8
C=CCN1C(=S)N[C@@H]2CS(=O)(=O)C[C@@H]21,0.5,1.3
C[C@H]1CN([C@@H](C)CO)C(=O)c2cccc(NC(=O)Nc3cccc4ccccc34)c2O[C@H]1CN(C)Cc1ccc(C(F)(F)F)cc1,.,-5.0
CN(C)/C=C1/Nc2ccccc2C1=O,.,-2.8
Cc1ccc(S(=O)(=O)Nc2ccc3c(c2)C(=O)N([C@@H](C)CO)C[C@H](C)[C@H](CN(C)Cc2ccncc2)O3)cc1,0.7,-0.5
CC1=C(Cc2ccc(OC(=O)c3ccccc3)cc2)C(=O)C(C(C)C)CC1 (stereo not drawn),0.6,0.0
CC(C)(C)c1ccc(C(=O)N2CCCC2)cc1,-0.1,2.6
CCN(CC)CCOc1ccc2nc(N(C)C)sc2c1,-0.3,1.5
Cc1noc(C)c1NC(=O)N(C)C[C@H]1Oc2ccc(NS(=O)(=O)c3cn(C)cn3)cc2C(=O)N([C@H](C)CO)C[C@H]1C,-0.6,4.2
CC(=O)Oc1ccccc1OCc1nn(C)c2ccccc12,-5.5,3.1
Cc1noc(C)c1NC(=O)Nc1cccc2c1O[C@@H](CN(C)C(=O)NC(C)C)[C@@H](C)CN([C@H](C)CO)C2=O,.,-0.1
